# gsp agonist: activates gsp, the McCune-Albright syndrome mutation | gsp mutant cells, cAMP HTRF, 30 min; control for the full effect not named in the record | Potency, µM (doses to about 76.9 µM), without a hit: at the top dose activation (cAMP increase), most hits filed as activators | 340,000 compounds, 0.13% hits; active = well fitted activation curve with a large enough effect; inconclusive = small, poorly fitted or top-dose-only effect, or another doubt; inactive = no such curve, though single readings can be large or run the other way; cell line not stated here;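 further: phosphodiesterase inhibitor Ro 20-1724 added with compounds to block cAMP breakdown; potency means the concentration at half of the fitted maximal effect; nearly all actives have a fitted effect of over 60% in size; about a fifth of the inactives were tested at one dose only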
#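 Cells in DMEM/10% FBS with G418 were pretreated with compounds in DMSO plus […] (300 uM stock) for 30 min at 37C. cAMP was measured by HTRF (cAMP-d2 plus anti-cAMP antibody-K) after 30 min at room temperature.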
# Sfp inh: Sfp phosphopantetheinyl transferase inhibition; Q9F4F7; AID 1490; Potency, µM, for inactives: max response, negative = inhibition, hits mostly inhibitors; Biochemical Sfp PPTase activity, qHTS; 310,000 compounds, 3.5% hits; active means well fitted inhibition curve with a large enough effect; inconclusive means small, poorly fitted or top-dose-only effect, or another doubt; inactive means no such curve, though single readings can be large or run the other way;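 further: the enzyme is Sfp with the accession as filed and its product quenches rhodamine fluorescence; potency means the concentration at half of the fitted maximal effect; 0% = enzyme reaction without inhibitor and -100% = no enzyme wells; top concentration of the series not given in the record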
#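 Step 1, compound plus 15 nM Sfp-PPTase, 15 min, room temperature. Step 2, add rhodamine-CoA (5 uM) and BHQ-2-YbbR (12.5 uM). Step 3, read 525/598 nm fluorescence at 0 and 30 min.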
# gsp antagonist: gsp mutant antagonism; gsp-mutant cells, cAMP HTRF, 30 min; control for the full effect not named in the record; Potency, µM (titrated, usually from 76.9 µM), for the others: at the top dose activity change, negative = inhibition, usual class: inhibitors; 340,000 compounds, 0.4% hits; AID 624288; active = falling curve of any shape with a large fitted effect; inconclusive = falling curve, mostly with a smaller effect; inactive = flat or rising curve; cell line not stated here;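 further: intracellular cAMP measured with PDE inhibitor Ro 20-1724 present during compound exposure; potency means the concentration at half of the fitted maximal effect; on the % scale 0 is the no-effect control and ±100 the full control effect; nearly all actives have a fitted effect of over 65% in size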
#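 Cells in G418 medium, seeded 16-24 h, 37C; buffer exchange to DPBS + 1 mM CaCl2, 0.5 mM MgCl2, 0.05% BSA; cpds in DMSO + […] (300 uM stock), 30 min 37C; HTRF cAMP detection.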
# PINK1 modulator: modulators of PINK1 expression. PINK1 immunofluorescence, high-content cytometry, 24 h. Potency, µM (series often up to 76.6 µM), for inactives: at the top dose activation (PINK1 increase), usual class: activators. 410,000 compounds, 0.2% hits. AID 624263; active = well fitted activation curve with a large enough effect; inconclusive = small, poorly fitted or top-dose-only effect; inactive = flat fitted curve, though single readings scatter; cell line not stated here;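 further: potency means the concentration at half of the fitted maximal effect; % of control where 0% means no effect; nearly all actives have a fitted effect of over 65% in size; a mitochondrial uncoupler was the plate control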
#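 Compound titrations (5 concentrations, 24 h) on a stable cell line; DMSO and CCCP controls. Endpoint: fixed-cell PINK1 immunofluorescence with mitochondrial, cell and nuclear markers, scanned by microplate cytometer.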
# ClpP mod: qHTS Assay for Activators of ClpP. ATP-dependent Clp protease proteolytic subunit (Bacillus subtilis (strain 168)), P80244. purified B. subtilis ClpP, FRET peptide cleavage, 20 min. Potency, µM (top dose mostly 57.5 µM), for the others: at the top dose activity change, negative = active. 340,000 compounds, 1.9% hits. AID 651965, 2013; active = well fitted falling curve with a large enough effect; inconclusive = small, poorly fitted or top-dose-only effect; inactive = no such curve, though single readings can be large or run the other way; further: potency means the concentration at half of the fitted maximal effect; the source files actives as falling curves though it sought activators and does not explain the sign; nearly all actives have a fitted effect of over 65% in size; many hits overshoot -100%
# Target sequence (P80244 whole entry, looked up): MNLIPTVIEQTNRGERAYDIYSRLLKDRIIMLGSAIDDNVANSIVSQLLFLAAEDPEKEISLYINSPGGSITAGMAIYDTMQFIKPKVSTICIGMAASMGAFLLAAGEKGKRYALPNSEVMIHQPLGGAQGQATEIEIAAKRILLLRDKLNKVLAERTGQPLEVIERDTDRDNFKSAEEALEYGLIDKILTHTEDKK
#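 Buffer: 100 mM Tris/HCl pH8, 100 mM KCl, 0.05% low protease BSA, 2.5% glycerol, 0.01% Tween-20. ClpP 10 microg/mL final; 20 min RT; delta FRET normalized to ADEP and DMSO controls.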
# Menin-MLL FL inh: menin-MLL binding inhibition, fluorescein peptide. Fluorescence polarization, fluorescein-MLL peptide displacement from menin. FP activity change, % at 61.4 µM. 290,000 tested, under 10 active. AID 1766; inconclusive = falling polarisation curve, or a change in total fluorescence; inactive = total fluorescence flat and polarisation flat or rising; no compound was filed as active; the % refers to the polarisation; negative = inhibition;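 further: % of control where 0% means no effect; inhibitors lower the polarisation; unlabelled MLL peptide was the positive control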
# D2 agonist: agonists of human D2 dopamine receptor (beta-arrestin). P14416. 360,000 compounds, 0.084% hits. activation, % (test concentration not listed). AID 624465. DiscoveRx PathHunter D2 beta-arrestin, luminescence, 90 min; 100% = 57 uM dopamine signal; in the data active = activation above about 40%; inconclusive = about 15% to 40%; inactive = below about 15%; further: compound concentration not given in the record; the text of the record calls up to 30% inactive
# Target sequence (P14416 whole entry, looked up): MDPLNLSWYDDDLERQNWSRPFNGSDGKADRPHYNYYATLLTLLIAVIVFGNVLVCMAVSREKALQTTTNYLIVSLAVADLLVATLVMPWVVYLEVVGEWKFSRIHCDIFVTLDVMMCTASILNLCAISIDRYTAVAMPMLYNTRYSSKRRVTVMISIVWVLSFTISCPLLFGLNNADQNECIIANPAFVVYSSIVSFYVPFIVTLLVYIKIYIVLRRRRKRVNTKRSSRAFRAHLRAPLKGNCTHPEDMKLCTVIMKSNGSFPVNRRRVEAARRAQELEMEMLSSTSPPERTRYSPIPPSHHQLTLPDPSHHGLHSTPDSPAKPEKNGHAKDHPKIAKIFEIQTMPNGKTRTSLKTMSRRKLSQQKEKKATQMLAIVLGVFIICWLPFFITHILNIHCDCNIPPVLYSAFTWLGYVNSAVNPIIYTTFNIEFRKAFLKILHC
#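 DiscoveRx PathHunter D2 beta-arrestin cells (2,100/well) attached overnight, then compound-stimulated 90 min at 37 C in HBSS/10 mM HEPES/0.1% Tween-20 buffer; beta-galactosidase complementation read by luminescence after 1 h at ambient temperature. Dopamine 57 uM final (EC100) as control.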
# Numbers without * were called inactive; ? = inconclusive; . = not tested or not shown; & = joins results of further samples; [ ] = dose if it differs, or a comment.
molecule,Menin-MLL FL inh,gsp antagonist,ClpP mod,D2 agonist,Sfp inh,PINK1 modulator,gsp agonist
O=C(NCc1ccc(F)cc1)C1CCCN1C(=O)Nc1ccccc1 (centres undefined),-0.3,9%,0.6%,-10,11%,3.2%,10%
Cc1nc(SCc2ccc([N+](=O)[O-])cc2)nc2ccccc12,0.7,9%,-1.1%,-2.0,?,7.4%[38.3 µM],-52%[inhibitor]
Cc1cc(OCCn2ccnc2)cc(C(C)C)c1,2.3,5%,-17%,5.8,-13%,7.7%,-28%
Cc1cc(NC(=O)c2ccoc2C)ccc1Br,.,-11%,0.9%,12,.,6.6%,-16%
CCCOc1ccc(-c2nc(N3CCN(C)CC3)c3ccccc3n2)cc1,0.1,4%,-13%,-4.2,-7%,-0.6%,?
COc1cc(C2NC(=O)NC(C)=C2C(C)=O)ccc1O (centres undefined),5.3,1%,.,-1.5,-15%,-1.9%,-16%[15.4 µM]
O=C(CCC(=O)NNC(=O)c1ccc(Cl)cc1Cl)NCc1ccccc1,.,0%,-2.2%,3.1,.,3.2%,-10%
Cc1[nH]ccc(=O)c1Cc1c(Cl)cccc1Cl,8.9,5%,.,-1.7,6%,0.2%,-18%
CC(C)C(=O)NNC(=O)c1csc(CS(=O)(=O)c2ccc(Cl)cc2)n1,3.8,13%,0.7%,1.6,-8%,-0.3%,-2%[15.4 µM]
Cc1cc(Br)ccc1NC(=O)CN(C)Cc1cccs1,2.5,-1%,.,1.1,-1%,-1.4%,7%
CCCn1cnc2c(SCCc3ccccc3)nc(N)nc21,.,-5%,1.1%,3.0,.,1.4%,-2%[15.4 µM]
Cc1ccc(C)c(S(=O)(=O)N2CCN(C(=O)CCc3c[nH]c4ccccc34)CC2)c1,.,-7%,0.6%,-2.4,.,-0.5%,-19%
CC1=CSC2=NS(=O)(=O)CCN12,-0.9,15%,0.0%,-6.9,-3%,-0.3%,-26%
CCOc1ccc(/C=N/NC(=O)Cc2ccccc2)cc1CN1CC2CC(C1)c1cccc(=O)n1C2 (centres undefined),.,35µM*,-0.2%,-0.6,.,2.1%,.
COc1ccc(CNC(=O)Cn2cc(C)c(=O)[nH]c2=O)cc1,.,8%,1.1%,-0.8,.,0.1%,.
Cc1ccc(C(=O)O)cc1N1C(=O)c2cccc3c([N+](=O)[O-])ccc(c23)C1=O,?,-26%,-1.2%,12,-19%,7.5%,-17%
COc1ccc(C(C)=O)cc1CN1C(=O)NC2(CCCCCC2)C1=O,3.0,15%,1.3%,-3.1,10%,.,-20%
Cc1cc(N2CCN(S(=O)(=O)c3ccc(Cl)c(Cl)c3)CC2)c2ccccc2n1,-1.4,-21%,-13%,-0.8,8%,0.3%,2%
CC(C)OCCCNC(=O)C1CCC(CNS(=O)(=O)c2cccc3nsnc23)CC1 (centres undefined),1.0,-2%,1.9%,-7.5,14%,-1.0%,13%
Cc1ccc(Nc2nc3ccc(Cl)cc3n3cnnc23)cc1F,14,-1%,-12%,-1.9,10%,0.4%,-9%[15.4 µM]
Cc1cccc(N2C(=O)c3cccnc3C2=O)c1,12,-21%,-2.1%,-0.8,-9%,-0.5%,20%
O=[N+]([O-])c1ccc(/C=N/n2c(COc3ccccc3)n[nH]c2=S)cc1,1.7,-39%,1.7%,-4.0,-11%,0.8%,12%
COc1ccc(CN=C2NN=C(c3cccc(OC)c3)CS2)cc1,13,-11%,.,1.4,?,-0.5%,2%
CC(C)C[C@H](NC(=O)N1CC(=O)Nc2ccccc21)C(=O)N[C@@H](Cc1ccccc1)C(=O)O,-0.5,2%,-5.5%,-9.3,8%,0.8%,.
Cn1cc(CNCC2CCCO2)c(-c2ccc(Oc3ccccc3)cc2)n1 (centres undefined),0.3,-7%,.,-3.9,?,1.8%,-15%
COc1ccccc1C1CCN(Cc2ccc(C)cc2)CC1,3.8,3%,0.1%,-3.0,3%,5.2%,24%[15.4 µM]
Cc1cc(-c2nnc(SCC(=O)Nc3ccc(F)cc3F)n2N)n[nH]1,-5.0,11%,-1.1%,-3.6,10%,0.3%,-16%
CC(=O)Nc1ccc(OCC(O)CN2C(C)CCCC2C)cc1 (centres undefined),9.3,12%,0.1%,-1.2,9%,-0.9%,-24%
COC(=O)COc1cccc2c(=O)n(CC(=O)N3CCC(C)CC3)ccc12,1.7,5%,.,-0.1,5%,-1.0%,17%[15.4 µM]
CCNc1nc(C(=O)O)nc(N2CCOCC2)n1,-3.8,-1%,-0.2%,0.9,79µM*,-1.6%,-9%[15.4 µM]
Cc1ccc2cc(NC(=O)CC(CC(=O)O)c3ccccc3)ccc2n1 (centres undefined),3.6,3%,-27%,3.9,20%,0.8%,-15%
COc1ccc(N2CCN(C(=O)CCC(=O)N3CC(C)Oc4ccccc43)CC2)cc1 (centres undefined),0.8,-2%,-12%,0.3,0%,-0.1%,7%
CCCCCCSc1cc(-c2nc3cnccn3c2NCCCC)ccc1OC,.,-4%,-26%,2.5,.,-1.9%,.
Cc1nn(C2CCS(=O)(=O)C2)c(Cl)c1/C=C/C(=O)OCC(=O)c1cc(C)n(-c2ccc(F)cc2)c1C (centres undefined),8.2,-6%,-3.4%,3.4,-3%,2.2%,-45%[inhibitor]
CC(=O)Nc1cc(-c2ccccc2N(C)C)cn2c(-c3ccc(F)c(Cl)c3)cnc12,.,.,?,-2.0,.,-0.4%,.
O=C(NCc1ccco1)c1cccc2c(-c3ccc(F)c(F)c3)coc12,.,.,-4.3%,6.0,.,1.2%,.
COC(=O)CCC(=O)OC1(C)C(=O)C=C2C=C(C3CC3)N(Cc3ccc(OC)cc3)C=C2C1=O (centres undefined),?,-2%,-7.3%,6.9,-6%&-5%,1.2%,.
Cc1ccc(-c2nnc(SCC(=O)N3CC(C)CC(C)C3)o2)cc1C (centres undefined),0.4,-24%,-2.1%,0.5,-14%,0.0%,-23%
Cc1ccnc(NC(=O)c2ccc(S(=O)(=O)N3CCCCC3)cc2)c1,.,-2%,0.4%,4.4,.,0.7%,43%
O=C(Nc1ccc2c(c1)OCO2)c1ccc(CO)cc1,.,-2%,-0.5%,-4.6,.,-0.2%,-39%[inhibitor]
COc1ccc(Cl)cc1NC(=O)CN1CCCCCC1,1.8,3%,.,-4.9,19%,0.9%,1%[15.4 µM]
Cc1ccccc1C(=O)Nc1ccc2c(c1)C(=O)NC2=O,1.4,0%,4.2%,-5.9,15%,2.8%,-31%
O=C(Cn1cnc2c(nnn2Cc2ccc(F)cc2)c1=O)Nc1cccc(F)c1,4.3,11%,-0.6%,1.0,-2%,-1.8%,18%
COc1cccc(NC(=O)CN(C)C(=O)c2ccc(N3CCOCC3)c([N+](=O)[O-])c2)c1,.,1%,.,-1.1,.,1.8%,-1%[15.4 µM]
O=C(Nc1ccc(N2CCOCC2)nc1)c1ccc(Cl)cc1,-2.0,6%,2.0%,-5.6,4%,4.1%,-10%
COc1ccc(NCC(=O)N/N=C/c2ccc3c(c2)OCCO3)cc1,7.3,-17%,1.4%,-4.2,0%,-2.0%,-13%
O=S(=O)(c1cccc(Cl)c1)N1CCC(c2nc3ccccc3[nH]2)CC1,-2.7,?,.,1.2,16%,0.0%,6%[15.4 µM]
CC(C)(C)c1cc(C(=O)NNC(=O)c2ccc(C(F)(F)F)cc2)no1,2.6,-5%,0.1%,-4.4,1%,0.2%,-62%[inhibitor]
CCOC(=O)C1=NNC2C(=O)N(CC)C(=O)C12 (centres undefined),-0.2,10%,-1.5%,0.6,13%,1.8%,-27%
O=C(C1=C[C@H](c2ccc(C(F)(F)F)cc2)C[C@H](OCc2ccc(CO)cc2)O1)N1CCN(Cc2ccc3c(c2)OCO3)CC1,6.8,-17%,1.9%,-1.0,-5%,0.5%,.
O=C(OCc1ccccc1)/C(=C(\O)c1ccccc1Br)c1ccc(-c2ccccc2)cn1,.,2%,-3.7%,-1.0,.,13%,-6%
Oc1ccc(CN2CCN(Cc3ccccc3)CC2)c2cccnc12,2.8,0%,-0.7%,-5.5,19%,-0.5%,-7%
COc1ccccc1NC(=O)C1=C(C)Nc2nc(-c3cccnc3)nn2C1c1ccccn1 (centres undefined),.,-12%,-0.3%,-0.3,.,11%,?
O=C(c1cc2ccccc2o1)N1CCN(S(=O)(=O)c2cccs2)CC1,2.1,-7%,-1.3%,0.6,-1%,3.4%,4%
c1coc(-c2cc3nc(NC4CCCCC4)ccn3n2)c1,.,.,5.0%,-4.3,.,3.1%,.
CC1=NN(C(=O)c2ccccc2Br)C(O)(c2cccnc2)C1 (centres undefined),-1.3,21%,-1.3%,-2.2,17%,-1.3%,?
Cc1ccc(Cn2c(CN(C)Cc3ccccc3)nc3c2c(=O)n(C)c(=O)n3C)cc1,2.6,18%,0.5%,-3.7,-20%,0.1%,5%
Cc1ccc(Oc2c(C)nc(-c3ccccc3)[nH]c2=O)cc1,-0.5,-2%,1.4%,-21,-3%,3.6%,-1%[15.4 µM]
COc1ccc(C2CC2/C(=N/O)c2ccccn2)cc1 (centres undefined),1.4,1%,.,-2.8,9%,0.5%,-1%[15.4 µM]
Cc1ccc(-c2c[n+](CC(=O)OCc3ccccc3)c3n2CCC3)cc1,-8.1,10%,1.0%,-0.8,8%,-1.3%,?

# Assay outcomes deposited in PubChem BioAssay by National Center for Advancing Translational Sciences (NCATS).
